Sfp PPTase inh: Sfp phosphopantetheinyl transferase inhibition; Q9F4F7; Biochemical Sfp PPTase activity, qHTS; Potency, µM, inactives show max response, negative = inhibition, hits mostly inhibitors; actives 3.5% (n = 310,000); AID 1490; active = well fitted inhibition curve with a large enough effect; inconclusive = small, poorly fitted or top-dose-only effect, or another doubt; inactive = no such curve, though single readings can be large or run the other way;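 note: the enzyme is Sfp with the accession as filed and its product quenches rhodamine fluorescence; potency is the fitted concentration of half-maximal effect; 0% = enzyme reaction without inhibitor and -100% = no enzyme wells; top concentration of the series not given in the record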
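Fluorescence-quenching assay with 15 nM Sfp, 5 uM rhodamine-CoA and 12.5 uM BHQ-2-labelled ybbR peptide in pH 7.6 Hepes/MgCl2 buffer. Enzyme was pre-incubated with compound for 15 min at room temperature. Rate was taken from the 30-min fluorescence change (525/598 nm).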
ClpP mod: qHTS Assay for Activators of ClpP; ATP-dependent Clp protease proteolytic subunit (Bacillus subtilis (strain 168)), P80244; purified B. subtilis ClpP, FRET peptide cleavage, 20 min; Potency, µM (titrated, usually from 57.5 µM), without a hit: at the highest dose activity change, negative = active; actives 1.9% (n = 340,000); AID 651965, 2013; active = well fitted falling curve with a large enough effect; inconclusive = small, poorly fitted or top-dose-only effect; inactive = no such curve, though single readings can be large or run the other way; note: potency is the fitted concentration of half-maximal effect; the source files actives as falling curves though it sought activators and does not explain the sign; nearly all actives have a fitted effect of over 65% in size; many hits overshoot -100%
Target sequence (P80244 whole entry, looked up): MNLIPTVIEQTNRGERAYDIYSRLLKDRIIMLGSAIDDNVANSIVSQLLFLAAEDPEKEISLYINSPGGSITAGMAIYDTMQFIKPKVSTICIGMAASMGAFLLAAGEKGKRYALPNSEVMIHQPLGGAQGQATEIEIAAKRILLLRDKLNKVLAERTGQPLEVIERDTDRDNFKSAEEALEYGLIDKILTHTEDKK
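ClpP 10 microg/mL final, pH 8 Tris/KCl buffer with BSA, glycerol, Tween-20; compound pinned in; FRET-FV substrate; RT 20 min; Ex320/Em430; ΔFRET vs ADEP 5.8 microM, DMSO, no enzyme.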
Menin MLL FP FL: menin-MLL binding inhibition, fluorescein peptide | Fluorescence polarization, fluorescein-MLL peptide displacement from menin | 290,000 tested, under 10 active | FP activity change, % at 61.4 µM; inconclusive = falling polarisation curve, or a change in total fluorescence; inactive = total fluorescence flat and polarisation flat or rising; no compound was filed as active; the % refers to the polarisation; negative = inhibition;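 note: % of control where 0% means no effect; inhibitors lower the polarisation; unlabelled MLL peptide was the positive control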
PINK1 modulator: PINK1 expression modulation. actives 0.2% (n = 410,000). PINK1 immunofluorescence, high-content cytometry, 24 h. AID 624263. Potency, µM (doses to about 76.6 µM), for the others: at the highest dose activation (PINK1 increase), usual class: activators; active = well fitted activation curve with a large enough effect; inconclusive = small, poorly fitted or top-dose-only effect; inactive = flat fitted curve, though single readings scatter; cell line not stated here;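 note: potency is the fitted concentration of half-maximal effect; % of control where 0% means no effect; nearly all actives have a fitted effect of over 65% in size; a mitochondrial uncoupler was the plate control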
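Measures PINK1 amount and localization on or inside mitochondria by immunofluorescence. Stable cells get compounds at 5 concentrations for 24 hours before fixation and staining; CCCP controls included.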
gsp ag: gsp mutant agonism; gsp mutant cells, cAMP HTRF, 30 min; control for the full effect not named in the record; AID 624287; actives 0.13% (n = 340,000); Potency, µM (highest dose often 76.9 µM), for the others: at the top dose activation (cAMP increase), actives largely listed as activators; active = well fitted activation curve with a large enough effect; inconclusive = small, poorly fitted or top-dose-only effect, or another doubt; inactive = no such curve, though single readings can be large or run the other way; cell line not stated here;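 note: phosphodiesterase inhibitor Ro 20-1724 added with compounds to block cAMP breakdown; potency is the fitted concentration of half-maximal effect; nearly all actives have a fitted effect of over 60% in size; about a fifth of the inactives were tested at one dose only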
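Cells stably selected in G418 were plated at 2000/well, grown 16-24 hr, then given compounds in DMSO with the PDE inhibitor […] (300 uM solution added) for 30 min at 37C; cAMP was read by HTRF.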
D2 agonist: activates the human D2 dopamine receptor. DiscoveRx PathHunter D2 beta-arrestin, luminescence, 90 min; 100% = 57 uM dopamine signal. activation, % (concentration not given with the values). actives 0.084% (n = 360,000); in the data active = activation above about 40%; inconclusive = about 15% to 40%; inactive = below about 15%; note: compound concentration not given in the record; the text of the record calls up to 30% inactive
Target sequence (P14416 whole entry, looked up): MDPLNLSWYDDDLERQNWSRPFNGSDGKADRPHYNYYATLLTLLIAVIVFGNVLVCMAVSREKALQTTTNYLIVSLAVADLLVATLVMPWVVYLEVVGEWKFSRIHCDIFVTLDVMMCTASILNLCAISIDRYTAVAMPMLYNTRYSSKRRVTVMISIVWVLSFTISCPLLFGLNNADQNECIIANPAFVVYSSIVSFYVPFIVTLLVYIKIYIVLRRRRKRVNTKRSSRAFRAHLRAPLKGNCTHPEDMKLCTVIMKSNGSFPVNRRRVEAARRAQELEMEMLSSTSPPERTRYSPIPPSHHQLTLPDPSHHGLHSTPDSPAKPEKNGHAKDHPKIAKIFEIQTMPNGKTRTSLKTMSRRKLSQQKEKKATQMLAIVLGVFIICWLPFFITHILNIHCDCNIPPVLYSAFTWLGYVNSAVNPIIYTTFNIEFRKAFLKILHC
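Agonist mode: compounds alone added to overnight-plated D2 PathHunter cells for 90 min at 37 C, with 57 uM final dopamine (EC100) defining full response. Beta-arrestin recruitment detected by chemiluminescent reagent, read after 1 h at ambient temperature.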
gsp antagonist: antagonizes gsp, the McCune-Albright syndrome mutation | gsp-mutant cells, cAMP HTRF, 30 min; control for the full effect not named in the record | Potency, µM (highest dose often 76.9 µM), without a hit: at the top dose activity change, negative = inhibition, actives largely listed as inhibitors | actives 0.4% (n = 340,000) | AID 624288; active = falling curve of any shape with a large fitted effect; inconclusive = falling curve, mostly with a smaller effect; inactive = flat or rising curve; cell line not stated here;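 note: intracellular cAMP measured with PDE inhibitor Ro 20-1724 present during compound exposure; potency is the fitted concentration of half-maximal effect; % is set by controls: 0 for no effect and ±100 for the full control effect; nearly all actives have a fitted effect of over 65% in size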
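Measurement of cellular cAMP by homogeneous time-resolved fluorescence following a 30 min compound exposure at 37C. The PDE inhibitor […] was present throughout; the assay buffer was DPBS with 0.05% BSA and 0.005% Tween 20.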
Numbers without * were called inactive; u = inconclusive; x = not tested or not shown; & = joins results of further samples; [ ] = remark or other dose.

SMILES	Sfp PPTase inh	ClpP mod	Menin MLL FP FL	PINK1 modulator	gsp ag	D2 agonist	gsp antagonist
N#CC1=C(N)Nc2ncnn2C1c1ccc([N+](=O)[O-])cc1 (configuration not stated)	-4%	-1.6%	0.1	-0.4%	u	0.6	3%
COc1ccc(CN2CCN(CCCCOc3ccc(Cl)cc3)CC2)c(OC)c1OC	89µM*	x	-7.2	16%	0%	-2.7	11%
CC(C)(C)OC(=O)N(CCc1ccccc1)Cc1cccc(OCc2cccc(NC(=O)C3CCC3)c2)c1	x	-0.8%	x	1.3%	x	-2.7	u
O=C(CN1C(=O)c2ccccc2C1=O)N1CCOCC1	-15%	u	0.8	0.4%	-1%	-1.5	4%
CCc1c(C)c2ccc(O)c(CN3CCCC3)c2oc1=O	13%	x	-2.2	6.4%	u	-2.6	4%
Cc1cc2n(n1)C(c1c[nH]c3ccccc13)Nc1ccccc1-2 (configuration not stated)	-1%	22µM*	-0.1	3.0%	-3%	-0.1	u
COCC(=O)N[C@@H]1c2ccccc2CC[C@@H]1OCc1ccccc1	x	2.2%	x	-0.8%	x	0.2	10%
COc1ccc2nc(/C=N/NC(=O)CCNC(=O)OC(C)(C)C)ccc2c1	11%	-1.6%	3.2	-1.4%	8%[15.4 µM]	-1.3	-21%
O=C(O)CN1C(=O)C2C3CCC(C3)C2C1=O (configuration not stated)	x	1.3%	x	0.8%	-28%	-0.2	x
O=[N+]([O-])c1ccc(N2CCOCC2)cc1	x	-0.1%	x	0.0%	-1%[15.4 µM]	0.8	13%
Nc1c(C(=O)O)cnc2c(-c3ccc(Cl)cc3)cnn12	-5%	x	0.8	-0.6%	0%[15.4 µM]	-1.2	-27%
Cc1ccc(N2CC(C(=O)N3CCC(c4nc5ccccc5[nH]4)CC3)CC2=O)cc1C (configuration not stated)	x	-15%	x	-0.4%	6%[15.4 µM]	0.7	-6%
COc1ccc2[nH]c(=O)c(CN(CCc3cccc(C)c3)C(C)=O)cc2c1	2%	u	0.5	-0.2%	-32%[inhibitor]	1.3	-13%
COc1ccc(NC(=O)[C@@H]2[C@@H]3C(=O)N(C4CCCCC4)C(=O)[C@@H]3C3c4ccccc4C=CN32)cc1 (some centres not stated)	3%	3.4%	u	-0.9%	7%	-2.9	-7%
COC(=O)C1=C(CSc2nc3c(cc2C#N)CN(C)CC3)OC(N)=C(C#N)C1c1ccc(F)cc1 (configuration not stated)	u	-15%	u	-1.5%[38.3 µM]	u	0.3	13%
CC(=O)N(/N=C1/C(=O)Nc2ccccc21)c1ccccc1	-19%	x	u	3.4%	5%	-4.1	-10%
C=CCn1c(=O)c2ccc(C(=O)NCc3ccccc3)cc2n(Cc2ccc(C)cc2)c1=O	-16%	u	-2.2	10%	16%	-3.2	-1%
Cc1ccc(NC(=O)c2ccc(S(=O)(=O)NCC3CCCO3)cc2)cc1C (configuration not stated)	6%	0.8%	-0.2	0.4%	1%[15.4 µM]	-6.4	-10%
COC(=O)N/N=C/c1ccccc1OCCOc1ccc(OC)cc1	u	x	-1.4	5.9%	1%	-0.7	-4%
CCn1c(N2CCN(CC(=O)c3c(C)n(C)c4ccc(OC)cc34)CC2)nc2c1c(=O)[nH]c(=O)n2C	10%	x	0.0	2.1%	-4%[15.4 µM]	3.3	-16%
CCNS(=O)(=O)c1cc(OC)c(Cl)cc1OC	13%	-3.5%	1.9	-0.1%	6%	0.6	8%
O=C(NCc1ccco1)C1CCN(S(=O)(=O)c2cccc3cccnc23)CC1	-2%	-2.4%	-0.8	0.2%	5%	0.5	6%
O=C(CN(C(=O)CNC(=O)c1ccco1)c1ccccc1F)NC1CCCCC1	-9%	-23%	-1.6	0.4%	-1%[15.4 µM]	-3.4	-7%
Cn1cc(/C=C/C(=O)N2CCCC(C(=O)c3cccc(C(F)(F)F)c3)C2)cn1 (configuration not stated)	-4%	x	2.5	0.7%	-23%[15.4 µM]	-0.8	4%
CN(Cc1cccs1)C(=O)CSc1nc2ccccc2[nH]1	16%	-1.2%	6.4	2.0%	-14%	-7.1	-5%
Cc1nn(C)c(Cl)c1CN1CCC(n2nccc2NC(=O)C2CCCC2)CC1	19%	1.1%	x	0.0%	-40%	-1.4	2%
O=C(Nc1ccc2c(c1)OCO2)C1CCCN1C(=O)OCc1ccccc1 (configuration not stated)	13%	-1.5%	1.1	2.1%	17%	-3.6	-6%[15.4 µM]
CCOC(=O)C(CC(=O)O)NCc1ccco1 (configuration not stated)	u	2.1%	4.5	0.9%	-19%	-3.3	13%
COc1ccc(NC(=O)CSCc2ccc(C#N)cc2)c(OC)c1	13%	-0.1%	5.1	-0.1%	-2%[15.4 µM]	1.4	-10%
CCCn1c(=S)[nH]c2cc(C(=O)N3CCCC(C(=O)OCC)C3)ccc2c1=O (configuration not stated)	-3%	-2.7%	2.0	-4.7%[38.3 µM]	15%	0.6	-27%
CCCCn1nc(NC(=O)c2cccs2)c2cc3ccccc3nc21	3%	-23%	2.0	7.9%[38.3 µM]	-2%	-2.9	2%
Cn1nc(C(=O)NC2CCCCC2)c2c1-c1ccccc1S(=O)(=O)C2	-7%	-18%	x	0.4%	18%	-3.4	-6%
COc1cccc2cc(C(=O)N3C(C)CCCC3C)c(=O)oc12 (configuration not stated)	3%	-5.3%	0.7	-0.3%	u	1.1	-2%
Cc1cc2c(cc1C)N(C(=O)CSC1=NCCS1)C(C)(C)c1ssc(=S)c1-2	7%	0.0%	-0.7	-5.6%[38.3 µM]	-46%[inhibitor]	-3.9	-8%
CC(=O)N(c1ccc(Cl)cc1)c1cn(C(C)=O)c2ccccc12	7%	x	-0.6	1.0%	10%	1.0	-9%
Cc1cc(C2=NNC(=Nc3ccccc3)SC2)c(C)n1C	32µM*	0.8%	0.0	1.8%	-22%	3.8	7%
Cc1cc2c(Nc3ccccc3)ncnc2s1	0%	x	0.9	-1.5%	2%	-0.5	-5%
Cc1c(C(=O)NNS(=O)(=O)c2ccccc2Cl)sc(=S)n1C	-5%	-2.3%	x	1.1%	6%[15.4 µM]	-4.0	-20%
Cn1c(=O)n(C)c2cc(S(=O)(=O)NCCO)ccc21	10%	-9.1%	0.8	x	-26%	-2.6	4%
Cc1ccccc1-n1cnc2c(sc3nc(N4CCOCC4)c4c(c32)CCCC4)c1=O	3%	x	7.2	4.5%	-17%[15.4 µM]	0.5	-33%
CN1CCC(C)(C(=O)Nc2ccc3c(c2)OCCO3)C1 (configuration not stated)	x	-1.4%	x	-0.7%	x	-2.9	x
CCn1ncc(Br)c1C(=O)Nc1ccc(C(C)C)cc1	-10%	x	-15	12%	11%	-0.8	-6%
CCC1CCCCN1c1nc(-c2ccncc2)nc2ccccc12 (configuration not stated)	-17%	-19%	-0.2	-0.5%[38.3 µM]	-41%[inhibitor]	2.0	-16%
COC(=O)c1sc(-c2ccc(Cl)cc2)cc1N	3%	1.8%	1.0	4.7%	6%[15.4 µM]	3.5	-8%
O=C(O)c1cccc(NC(=S)NC(=O)c2cccc(OCc3ccccc3)c2)c1	5%	1.7%	-0.3	-0.1%	-34%	-2.8	-13%
O=C(NC1CCN(C(=O)NCc2ccccc2)CC1)c1ccco1	13%	0.7%	6.7	-0.7%	u	-0.9	0%
CC(=O)Nc1ccc(S(=O)(=O)NCC2CCC(C(=O)NCCc3ccccc3)CC2)cc1 (configuration not stated)	-20%	-0.4%&2.4%	x	-0.5%&0.8%	-4%	0.2	10%
COc1ccccc1CNCC(=O)NCc1ccc(C)cc1	-18%	-0.2%	-2.5	0.2%	1%	-1.6	10%
CC(C)(C)c1ccc(S(=O)(=O)N2CC(=O)Nc3ccccc32)cc1	13%	0.6%	1.3	-1.0%	-4%	-1.5	2%
COc1cccc(-c2nnn(CC(=O)Nc3ccc(C)cc3C)n2)c1OC	1%	-4.3%	-0.2	2.8%[38.3 µM]	u	-0.1	3%
C=C(C)c1cccc(C(C)(C)NC(=O)N2CCCCC2CC)c1 (configuration not stated)	20%	-1.7%	2.5	1.3%	4%	-5.3	-8%
O=C(NC(=S)N1CCN(c2ccccc2)CC1)c1ccc(S(=O)(=O)N2CCOCC2)cc1	11%	-0.2%	7.4	-0.2%	3%	-2.0	-16%
O=C(CCSc1ccccc1)N1CCN(c2ccccc2)CC1	0%	x	-2.0	-0.7%	u	0.2	-7%
CCCn1cnc2scc(-c3ccc(C)cc3)c2c1=O	17%	x	-0.4	1.9%	-22%[15.4 µM]	-3.1	1%
O=C(NC(C(=O)N/N=C/c1ccccc1)c1n[nH]c(=O)c2ccccc12)c1ccccc1 (configuration not stated)	6%	-0.9%	1.8	-2.1%	19%	0.8	4%
Oc1ccc(C[C@H]2CN([C@@H](Cc3ccc(O)cc3)CN3CCC[C@@H]3CN3C(=S)NC[C@@H]3Cc3ccccc3)C(=S)N2CC2CCCCCC2)cc1	x	-1.6%	x	3.1%	x	0.8	x
Cc1nn(Cc2ccc(Cl)c(Cl)c2)c(C)c1NC(=O)c1cc(-c2ccc3c(c2)OCO3)on1	2%	-18%	0.5	2.5%[38.3 µM]	-34%	1.6	-22%
Cc1ccc(S(=O)(=O)CNC(=S)c2cccc(Cl)c2)cc1	14%	1.1%	4.5	4.3%	-16%	-7.4	-2%
O=C(O)CC(NC(=O)c1cccc(F)c1)c1ccc(OC2CCCC2)cc1 (configuration not stated)	9%	1.1%	1.2	1.7%	-25%	-6.9	17%
COC(=O)c1c(C)[nH]c(C(=O)C(C)OC(=O)C2CC(=O)N(c3ccc(C)cc3)C2)c1C (configuration not stated)	x	1.1%	x	-2.1%	28%	2.5	40µM*
Cc1cccc(N2CCN(Cc3c(C)n(C)n(-c4ccccc4)c3=O)CC2)c1C	11%	0.5%	2.5	-0.1%[38.3 µM]	30%	-2.2	11%
O=C(Oc1ccc(/C=N/Nc2ccccc2)cc1)c1ccccc1	-14%	2.2%	2.5	2.2%	-36%[inhibitor]	-0.9	2%
